High-throughput results from PubChem.
BJeLR lethal = kills HRASV12-expressing BJeLR cells. inhibition, % (concentration not given with the values). hit rate 0.17% among 300,000. AID 1554. BJeLR (HRASV12) viability, CellTiter-Glo ATP luminescence, 48 h; reference of the scale not given here;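 active means replicate mean above 50%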;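 further: 50 nL library stock added to about 25 µL; numbers are from one replicate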
ugtP null kill = compounds lethal to S. aureus RN4220 ugtP deletion mutant; hit rate 0.54% among 330,000; OD600 growth, 16 h; some inactives read as strong as hits; growth inhibition, % (concentration not given with the values);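 active means z-score under -3 and OD600 up to 0.15 on both plates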;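 further: plate controls were untreated wells for no effect and antibiotic for full effect; wells of about 80 µL received 100 nL stock; the first replicate is given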
Autofluor counter = counter-screen for toxin protease inhibitors: compound fluorescence. compound autofluorescence counterscreen, microsphere flow cytometry; hits give high values. fluorescence intensity (no concentration beside the values). hit rate 3.1% among 360,000. AID 624483;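 active means at least 3 SD above the mean of all compounds, about 16000 in these data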;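 further: 100 nL of 1 mM stock went into each well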
RN4220 kill = kills Staphylococcus aureus RN4220; S. aureus RN4220 growth, OD600, 16 h; inhibition, % (no concentration beside the values); hit rate 0.33% among 330,000; AID 1259311;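 active means z-score of -3 or lower and OD600 up to 0.18 on both plates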;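 further: plate controls were untreated cells for no effect and reference antibiotic for full effect; stock transfer was 100 nL into about 80 µL; one replicate is shown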
Mtb hypoxia inh = inhibitors of hypoxia-regulated fluorescent reporter in Mycobacterium tuberculosis | M. tuberculosis hypoxia-regulated fluorescent reporter, fluorescence | fluorescence inhibition, % (no concentration beside the values) | hit rate 0.1% among 300,000 | AID 1159583;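 active means 35 to 45% if threefold the growth effect, above 45% if 1.5-fold the growth effect; inactive means the rest, general growth blockers included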;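 further: wells of about 50 µL received 100 nL stock; 0% = vehicle wells and 100% = reference inhibitor wells; whole bacteria with a GFP reporter of the hypoxia response; strong numbers were not always called active; many hits fall short of the cut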
PrP UTR inh = suppresses PrP 5' UTR mRNA reporter expression; cell-based PrP 5' UTR mRNA reporter, plate reader; inhibition, % (test concentration not listed); hit rate 0.35% among 340,000;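 active means every replicate at 50% or more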;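 further: 0 = median of the neutral control wells; tested in H4 reporter cells; numbers are from one replicate; inactives centre near -14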
Mtb hypoxia inh growth = further read-out of Mtb hypoxia inh, marked with its call; growth inhibition, %; measured here: M. tuberculosis growth (absorbance);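 0% = vehicle and 100% = reference antibiotic; read after six days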
An asterisk follows results filed as active; x = not tested or not shown.

Molecule	BJeLR lethal	ugtP null kill	Autofluor counter	RN4220 kill	Mtb hypoxia inh	Mtb hypoxia inh growth	PrP UTR inh
COc1ccc(NC(=O)C2CCCC2)cc1S(=O)(=O)N1CCOCC1	x	7	5483	4.4	14	3	-3
Cc1cc(-c2ccccc2)n[nH]1	-4	4	4560	1.4	9	17	-26
N=C(N)c1ccc(Cl)cc1	-16	-1	2056	3.1	1	5	-20
Cc1cc(C)c(NC(=O)CSc2nnc(CNC(=O)c3c(F)cccc3Cl)o2)c(C)c1	-4	-5	6335	3.9	10	3	6
O=C1C2CCCCN2C(=O)N1CCCCN1CCN(c2cccc(Cl)c2)CC1 (stereo not given)	2	7	4072	1.3	10	-4	-26
COc1cccc(NC(=O)CCc2nnc3ccc(N4CCN(c5cccc(OC)c5)CC4)nn23)c1	-7	4	5676	1.1	5	2	-1
CN(C(=O)CN1C(=O)C2C3CC(C(Br)C3Br)C2C1=O)C1CCCCC1 (stereo not given)	3	1	3920	6.0	2	0	-21
CCN(CC(=O)Nc1cc(Cl)cc(Cl)c1)CC(=O)NC1CCS(=O)(=O)C1 (stereo not given)	x	-3	3395	2.4	5	1	-28
CCOC(=O)CC(C)=NNC(=O)CN(c1ccc(Br)cc1)S(=O)(=O)c1ccccc1	x	4	x	3.5	7	6	x
Cc1ccc(C=NNc2ncc(Cl)cc2Cl)s1	x	7	x	7.4	x	x	x
CCOC(=O)c1c(C)nc2c(c1C)c(=O)oc1ccccc12	5	9	4626	7.9	x	x	-18
O=C(Cn1nnc(-c2ccccc2)n1)OCc1csc(-c2ccccc2)n1	0	5	5127	-0.7	x	x	-29
CC(Sc1ncnc2sc(-c3ccccc3)cc12)C(N)=O (stereo not given)	1	-10	6801	4.9	12	0	-23
CC(=O)c1ccc(NC(=O)C2CCN(S(=O)(=O)c3cccs3)CC2)cc1	-6	8	5035	1.2	4	3	-22
NC(=S)Nc1ccc(F)c(F)c1F	-2	2	4096	1.3	1	6	-31
N#C/C(=N\Nc1ccc([N+](=O)[O-])cc1)C(N)=S	19	x	4273	x	x	x	-11
COc1cc(/C=N/NC(=S)NC2CC3C=CC2C3)cc(OC)c1OC (stereo not given)	-7	x	4451	x	x	x	4
O=C(O)CCc1nn2cnc3sc4c(c3c2nc1=O)CCCC4	-12	6	7793	0.1	3	3	-31
O=C(Nc1ccccc1)C1=C[C@H](c2ccc3c(c2)OCO3)C[C@H](OCc2ccc(CO)cc2)O1	-18	x	2988	x	x	x	-24
CN(CC(=O)Nc1ccccc1Cl)C(=O)CSc1nnc(N)s1	-6	4	6253	2.0	-13	-5	-21
CC(=O)Nc1ccc(NC(=O)C(C)OC(=O)c2cc(S(=O)(=O)N(C)C)ccc2N2CCCC2)cc1 (stereo not given)	-3	0	4320	-0.1	-2	0	10
CCN1CCc2nc(NC(=O)C(c3ccccc3)c3ccccc3)sc2C1	3	-2	3603	-0.2	10	13	1
CCC(=O)N(Cc1cc2ccccc2[nH]c1=O)c1ccccc1OC	-1	3	4512	2.2	9	9	-6
O=C(c1ccc(Cl)cc1)N(Cc1cccs1)C1CCS(=O)(=O)C1 (stereo not given)	-10	-3	3704	-12	21	6	1
CCSC1=NCN(CCCC(=O)O)CN1	11	2	4158	2.3	6	7	-14
Cc1cc(NC(=O)C2CC(c3c(F)cccc3Cl)=NO2)n(-c2ccccc2)n1 (stereo not given)	1	-2	3877	0.9	-3	-5	-24
CC(OC(=O)c1ccccc1NCCO)C(=O)Nc1ccnn1C(C)C (stereo not given)	x	4	2837	1.9	7	2	-27
CC1=C(C(=O)N2CCOCC2)C(c2ccc(O)cc2)NC(=S)N1 (stereo not given)	-24	-12	2410	-0.5	-4	0	-3
O=C(NCC(c1ccco1)N1CCN(c2ccccc2F)CC1)c1cccs1 (stereo not given)	4	7	5775	3.0	-3	-12	0
CC(C(=O)Nc1ccc([N+](=O)[O-])cc1Cl)N1CCN(S(=O)(=O)c2cccs2)CC1 (stereo not given)	x	-12	3003	11	3	5	17

The results go on:
Molecule	BJeLR lethal	ugtP null kill	Autofluor counter	RN4220 kill	Mtb hypoxia inh	Mtb hypoxia inh growth	PrP UTR inh
COCCNC(=O)/C(C#N)=C/c1ccc(C)o1	3	2	3209	-0.6	1	2	-7
CN(C)S(=O)(=O)c1ccc(C(=O)NCC2(N3CCOCC3)CCCCC2)cc1	x	11	4490	6.3	5	-3	x
c1cc(-c2n[nH]c(-c3ccncc3)n2)ccn1	-5	x	3856	x	x	x	-31
O=C(NNC(=O)c1cccs1)c1ccccc1	4	7	4078	9.6	-4	-11	-25
CC(C)(C)NC(=O)NC(=O)CSc1ncccn1	-3	0	4513	2.6	-19	-3	-28
Cc1ccc(C)c(S(=O)(=O)c2c(N)n(/N=C/c3ccco3)c3nc4ccccc4nc23)c1	1	x	7960	x	x	x	-8
Cc1csc(Nc2ccccc2C(F)(F)F)n1	5	-14	3084	-3.4	x	x	-12
COc1ccccc1C(=O)NNS(=O)(=O)c1ccc(F)cc1	-14	-1	4117	2.5	0	6	-15
Cc1ccc(/C=N/NC(=O)Cn2cnc3c2c(=O)n(C)c(=O)n3C)s1	10	x	2211	x	x	x	-20
N#Cc1cn(-c2cccc(C(F)(F)F)c2)c(=O)[nH]c1=O	-6	5	3222	1.9	-1	0	-5
COC(=O)c1ccc(NC(=S)NCCc2ccccc2C)cc1	-4	-28	2298	-4.8	10	5	-29
COc1cccc(N(CC(=O)NC2CCCC2)C(=O)CCC(=O)Nc2nccs2)c1	-9	1	6033	2.2	-9	5	-9
CCOC(=O)c1c(NC(=O)CSc2nnc(-c3c[nH]c4ccccc34)n2CC)sc2c1CCCC2	0	-2	5510	-6.9	14	8	-32
CC(NC(=O)C1=CC=CN2CCS(=O)(=O)N=C12)c1ccc(Cl)cc1Cl (stereo not given)	x	0	3906	2.3	-7	-1	-12
COc1cc(NC(=O)c2cc(=O)[nH]c3ccc(S(=O)(=O)N4CCOCC4)cc23)cc(OC)c1	x	2	5404	-0.4	-10	-18	-12
O=C(NCCNC(=O)c1ccc(Br)o1)c1cccnc1	8	-2	7260	2.6	1	1	-8
O=C(CCc1nnc2ccc(NCc3ccccc3Cl)nn12)NC1CCCCC1	2	-1	5780	-1.1	2	17	-14
CC1CCN(S(=O)(=O)c2ccc3c(c2)N(CC(=O)NCCCN2CCCC(C)C2)C(=O)CO3)CC1 (stereo not given)	-6	-2	5998	-1.6	-3	13	1
COc1cc(OC)c(/C=N/N2CCN(c3ccccc3OC)CC2)c(OC)c1	-5	x	4118	x	x	x	-14
CC(Sc1cccc[n+]1[O-])c1ccccc1 (stereo not given)	9	6	3317	6.7	16	11	4
CCOC(=O)N1CCN(CC(O)COc2ccc(C)cc2C(C)(C)C)CC1 (stereo not given)	-4	-7	2303	-2.1	-2	-5	-16
CCOC(=O)c1sc(N(Cc2ccccc2)C(=O)CCl)nc1C	24	17	4676	2.7	6	9	-27
C=CCNCc1ccccc1[N+](=O)[O-]	13	x	3499	x	x	x	-16
CCc1cc2c(=O)nc3n(c2s1)Cc1ccccc1/C3=C(/O)c1ccc(F)cc1	6	x	2811	x	x	x	0
O=C(COc1cccnc1[N+](=O)[O-])NCc1ccccc1	-6	1	3412	0.4	-1	-8	-11
O=C(Nc1ccccc1OC(=O)c1ccc(Cl)cc1)c1ccc(Cl)cc1	-3	-8	2053	12	6	0	-71
CCNS(=O)(=O)c1ccc2c(c1)NCC2	0	14	2470	5.2	9	9	-15
CC(C)COc1ccc(C(=O)N/C(=C\c2cccc([N+](=O)[O-])c2)C(=O)OC(C)C)cc1	4	13	2776	-5.0	x	x	-21
O=C(Nc1ccccc1[N+](=O)[O-])c1cc(S(=O)(=O)N2CCOCC2)cs1	-11	8	4431	3.3	3	-7	-14
CCc1c(C)sc(NC(=O)C2CCCO2)c1C#N (stereo not given)	-1	13	3842	9.6	5	4	-18

The list goes on:
Molecule	BJeLR lethal	ugtP null kill	Autofluor counter	RN4220 kill	Mtb hypoxia inh	Mtb hypoxia inh growth	PrP UTR inh
COc1ccc(CCNC(=O)c2c(O)c3cccc4c3n(c2=O)CC4)cc1	-6	-6	3241	-5.3	3	1	-8
N#Cc1ccc(C(=O)Nc2cc(S(=O)(=O)N3CCCC3)ccc2OCC(F)(F)F)cc1	1	7	2116	3.0	-2	-6	-27
O=C(COc1ccccc1)NCC(=O)NC1=NCCS1	-9	-4	3430	-8.7	7	11	-21
COc1cccc(S(=O)(=O)c2nc(C)c3c(n2)CCC3)c1	3	4	3394	4.9	-4	0	-9
CN(C(=O)CSc1nnc(-c2ccc(F)cc2)c2ccccc12)C1CCS(=O)(=O)C1 (stereo not given)	0	-9	3820	3.4	-7	-4	5
COc1ccc(NC(=O)c2nnn(CC(=O)Nc3ccc4c(c3)OCO4)c2N)c(OC)c1	13	-8	5502	0.7	-6	1	-25
O=C(NNC(=O)[C@@H]1CCCC[C@@H]1C(=O)O)Nc1ccccc1	2	4	2237	3.0	9	6	-19
Cc1c(C(=O)Oc2cccc3cccnc23)oc2ccccc12	5	8	4496	15	0	-4	9
Cc1cc(NC(=O)CCCn2cc([N+](=O)[O-])cn2)n(Cc2ccc(F)cc2)n1	35	4	3212	5.4	10	4	-10
CSc1nc(Sc2cccc(Cl)c2)c2ccccc2n1	-2	0	3683	-11	x	x	-4
CC(=NNC(=O)c1nnn(-c2nonc2N)c1CN(C)c1ccccc1)c1ccccn1	x	-4	x	13	-2	9	x
COc1ccc(-n2c(O)c(C=NNS(=O)(=O)c3ccc(C)cc3)c3ccccc3c2=O)cc1OC	x	-3	x	11	-5	-1	x
CC1(C)Cc2ccccc2C(N/N=C/c2ccc(Cl)cc2)=N1	-2	x	2451	x	x	x	1
CN(c1ccc(OCC(=O)NC2CCC(O)CC2)cc1)S(=O)(=O)c1ccc(Cl)cc1 (stereo not given)	x	4	3746	7.0	8	8	-24
Cc1ccc(N(C)C(=O)N2CCN(S(=O)(=O)c3ccc(C)c(C)c3)CC2)cc1	-8	3	24506*	5.8	15	7	-9
Cc1ccc(Cl)c(NC(=O)CN2CCNC(=O)C2)c1Cl	-1	1	2970	4.7	3	-12	1
O=C(Cn1ccc(NC(=O)OCc2ccccc2)nc1=O)NCCc1c[nH]c2ccccc12	x	0	2953	-9.4	-1	-8	-16
CN(C)Cc1ccc(CNC(=O)c2ccc(Cl)c(S(=O)(=O)NC3CC3)c2)cc1	x	2	3740	5.5	5	2	-16

A different layout for part of the listing above:
The line under a structure holds: BJeLR lethal	ugtP null kill	Autofluor counter	RN4220 kill	Mtb hypoxia inh	Mtb hypoxia inh growth	PrP UTR inh
COc1ccc(CCNC(=O)c2c(O)c3cccc4c3n(c2=O)CC4)cc1
  -6	-6	3241	-5.3	3	1	-8
N#Cc1ccc(C(=O)Nc2cc(S(=O)(=O)N3CCCC3)ccc2OCC(F)(F)F)cc1
  1	7	2116	3.0	-2	-6	-27
O=C(COc1ccccc1)NCC(=O)NC1=NCCS1
  -9	-4	3430	-8.7	7	11	-21
COc1cccc(S(=O)(=O)c2nc(C)c3c(n2)CCC3)c1
  3	4	3394	4.9	-4	0	-9
CN(C(=O)CSc1nnc(-c2ccc(F)cc2)c2ccccc12)C1CCS(=O)(=O)C1 (stereo not given)
  0	-9	3820	3.4	-7	-4	5
COc1ccc(NC(=O)c2nnn(CC(=O)Nc3ccc4c(c3)OCO4)c2N)c(OC)c1
  13	-8	5502	0.7	-6	1	-25
O=C(NNC(=O)[C@@H]1CCCC[C@@H]1C(=O)O)Nc1ccccc1
  2	4	2237	3.0	9	6	-19
Cc1c(C(=O)Oc2cccc3cccnc23)oc2ccccc12
  5	8	4496	15	0	-4	9
Cc1cc(NC(=O)CCCn2cc([N+](=O)[O-])cn2)n(Cc2ccc(F)cc2)n1
  35	4	3212	5.4	10	4	-10
CSc1nc(Sc2cccc(Cl)c2)c2ccccc2n1
  -2	0	3683	-11	x	x	-4
